Compound activity (PubChem BioAssay)
MLL AF4-AF9 inh: inhibitors of AF4 peptide binding to AF9, primary screen, biochemical, AlphaScreen, biotin-AF4 peptide, FLAG-AF9, single point. Protein AF-9 (Homo sapiens), P42568. inhibition, % at 10 µM. 350,000 tested, 0.47% active. AID 651704, 2012;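 active = every replicate reaching a set inhibition limit, whatever the replicate mean, cut at about 25% in these data; inconclusive = mean inhibition reaches that limit but some replicates miss it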;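 also: 0% = plate neutral control median and 100% = total signal loss; the record names both 10 and 1 µM as test concentration; the first replicate is given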
Target sequence (P42568 whole entry, looked up): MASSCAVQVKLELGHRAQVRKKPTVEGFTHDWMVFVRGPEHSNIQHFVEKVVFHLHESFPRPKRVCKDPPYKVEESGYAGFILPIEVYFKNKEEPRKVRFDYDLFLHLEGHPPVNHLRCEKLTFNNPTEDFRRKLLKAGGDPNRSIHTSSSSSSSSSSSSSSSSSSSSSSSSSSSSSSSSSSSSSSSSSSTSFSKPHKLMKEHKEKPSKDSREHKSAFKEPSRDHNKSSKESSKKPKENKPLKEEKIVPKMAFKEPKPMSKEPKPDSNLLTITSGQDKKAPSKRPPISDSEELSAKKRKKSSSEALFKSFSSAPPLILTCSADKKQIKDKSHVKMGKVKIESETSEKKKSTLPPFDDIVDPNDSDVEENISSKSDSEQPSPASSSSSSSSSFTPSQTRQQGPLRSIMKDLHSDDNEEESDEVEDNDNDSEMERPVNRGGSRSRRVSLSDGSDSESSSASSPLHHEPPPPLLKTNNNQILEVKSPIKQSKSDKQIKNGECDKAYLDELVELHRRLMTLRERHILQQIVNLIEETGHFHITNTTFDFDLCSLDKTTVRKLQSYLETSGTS
Beta cell apopt: inhibitors of cytokine-induced beta cell apoptosis, primary screen, luminescence; INS-1E cytokine-induced death, ATP luminescence, 48 h; percent of positive-control rescue, neutral wells zero; 300,000 tested, 0.8% active; protection from apoptosis, % (no concentration beside the values);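 active = all replicates at 75% or more, or half of them and the mean; inconclusive = half reach 75% but not the mean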;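 also: 0% = cytokine-treated negative control wells and 100% = positive control rescue; higher means more ATP so stronger rescue from cytokine killing; wells of about 40 µL received 100 nL stock; the first replicate is given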
Vif TR-FRET: inhibitors of Vif binding to APOBEC3G peptide, primary screen, biochemical, TR-FRET, GST-Vif 1-94, biotin-A3G peptide, dose response retest (AID 1117319) | inhibition, %; hits with a dose series show IC50 in µM | TR-FRET GST-Vif / biotin-A3G peptide binding; higher % means a stronger effect; test concentration not given here; strong numbers were not always called active | 260,000 tested, 0.57% active;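 active = above the screen mean plus three standard deviations and confirmed in dose response; inconclusive = results disagree or hit not tested in dose response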;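 also: Vif residues 1-94 fused to GST binding biotinylated APOBEC3G peptide 110-148; 0% = full assay without inhibitor and 100% = GST in place of GST-Vif; retest series ran down from 100 µM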
RanGTP-Imp inh: inhibitors of RanGTP-importin-beta interaction, primary screen, biochemical, FRET, CFP-Ran, YFP-importin-beta, homogeneous. 300,000 tested, 1.1% active. inhibition, % (test concentration not listed). Ran GTPase (GTP-bound) - importin-beta complex. AID 2216, 2009. cell-free CFP-Ran/YFP-importin-beta FRET ratio;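 active = most replicates above 15%; inconclusive = exactly half above 15%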;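 also: 0% = DMSO wells and 100% = Ran loaded with GDP instead of GTP; wells of about 40 µL received 100 nL stock; the first replicate is given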
Ecoli rRNA inh: reduced GFP signal of wild-type E. coli, primary screen, bacterial rRNA inhibitor project, GFP/RFP fluorescence, OD600, single point. AID 720706, 2013. E. coli WT GFP vs humanized-ribosome RFP mutants, 24 h; hits give low values; DMSO median 0, no signal -100. 350,000 tested, 1.6% active. GFP signal change (wild-type ribosome), % (no concentration beside the values);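 active = significant combined selectivity score with lowered wild-type GFP, culture density cut under 30%, mutant RFP and density less affected; inactive = any of these conditions unmet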; also: one replicate is shown; some compounds called inactive have numbers as strong as hits
Bfl-1 A1 inh: caspase 3/7 activation in MEF A1-2A-BIM cells, primary screen, A1 inhibitor project, cell-based, luminescence, HTS | 330,000 tested, 0.066% active | caspase activation, % (test concentration not listed) | Caspase-Glo 3/7 luminescence, 3 h; percent of clofoctol response, vehicle zero;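 active = over half of replicate activation scores above 10%, or exactly half above 10 with the replicate mean above 10; inconclusive = replicate mean below 10 yet half the replicates above 10; inactive = over half of replicates below 10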;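 also: wells of about 30 µL received 50 nL stock; many hits fall short of the cut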
T cruzi inh: inhibitors of intracellular T. cruzi growth, primary screen, luminescence, NIH3T3 host cells; T. cruzi beta-gal in NIH3T3, 90 h; inhibition, % (no concentration beside the values); 300,000 tested, 1.4% active; AID 1885, 2009;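 active = mean inhibition across valid replicates above about 55%, limit read from the data; inconclusive = mean below that limit but half or more replicates reach it; inactive = mean below it, under half of replicates reach it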;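 also: signal also drops with host cell toxicity which is not excluded here; 0% = plate median of DMSO wells and 100% = zero luminescence signal; higher percent means less beta-gal luminescence so fewer parasites; stock transfer was 50 nL into about 50 µL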
Calb FLC: C. albicans growth inhibition with fluconazole, primary screen, CaCi-2 strain, Alamar Blue fluorescence | C. albicans CaCi-2 (fluconazole-resistant clinical isolate) + fluconazole, 48 h | growth inhibition, % (no concentration beside the values) | 300,000 tested, 0.57% active | AID 1979, 2009;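 active = most replicates above 75%; inconclusive = exactly half above 75%; inactive = most below 75%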;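 also: all wells also contain fluconazole at 8 µg/ml as a sub-toxic cotreatment; 0% = median of DMSO wells and 100% = median of geldanamycin control wells; wells of about 8 µL received 7.5 nL stock; the first replicate is given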
Ecoli rRNA inh OD600: recorded beside Ecoli rRNA inh, whose call it bears; OD600 change, %; measured here: OD600 growth;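 optical density of the mix in the first replicate; 0 = DMSO median and -100 = no signal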
Ecoli rRNA inh RFP: second read-out of Ecoli rRNA inh, no call of its own (marks repeat the call); RFP signal change, %; measured here: RFP humanized mutant strains;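 first replicate; 0 = DMSO median and -100 = no signal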
An asterisk follows results filed as active; ? = inconclusive; / = no result given. Some of the compounds tested (hit frequency here may not be typical).

SMILES	MLL AF4-AF9 inh	Beta cell apopt	Vif TR-FRET	RanGTP-Imp inh	Ecoli rRNA inh	Ecoli rRNA inh OD600	Ecoli rRNA inh RFP	Bfl-1 A1 inh	T cruzi inh	Calb FLC
C=CCn1c(C)cc(-c2csc(NC(=O)CCc3nc4ccccc4c(=O)[nH]3)n2)c1C	0.1	-1	-12%	-3.5	3	13	0.7	1.9	0	5
C(=N\Nc1nc(Nc2ccccc2)nc(N2CCOCC2)n1)/c1c[nH]c2ccccc12	/	/	17%	-4.0	/	/	/	0.0	72*	52
CCN(CC)CCC(c1cc(OC)c(OC)c(OC)c1)c1c(OC)cc(OC)c2c(C)cc(=O)oc12 (centres undefined)	-5.3	-3	/	3.2	-6	9	-5.8	0.2	34	-4
O=C(CSc1nnc(-c2ccccn2)n1Cc1ccccc1)N1CCOCC1	-1.4	-1	-1%	0.3	2	7	-2.5	-1.1	5	-20
CCOC(=O)C1CCCN(C(=O)c2cccc(S(=O)(=O)N(C)c3ccc(C)cc3)c2)C1 (centres undefined)	-20	4	-7%	/	-9	-9	-0.5	-0.2	/	/
COC(/C(=N/O)c1ccc(Cl)cc1)c1ccccc1 (centres undefined)	4.1	100*	-5%	-0.2	-47	-82	-19	-0.6	2	5
O=C(CSc1nccn1-c1ccccc1)NCc1ccc2c(c1)OCO2	/	/	-2%	-0.2	/	/	/	-1.5	-7	2
CCCCc1ccc(S(=O)(=O)NC2CCS(=O)(=O)C2)cc1 (centres undefined)	2.8	3	/	1.5	7	1	-3.6	?	1	20
CC(=O)c1cccc(OCC(O)CNCCOc2ccc(C)cc2)c1 (centres undefined)	8.6	-8	/	-1.5	3	3	1.4	-0.2	23	-20
Cc1cccc(NC(=O)C(C)n2cc([N+](=O)[O-])cn2)n1 (centres undefined)	-2.4	-1	-3%	0.8	4	0	-2.2	0.3	4	-40
Cc1cc(CNC(=O)C2CCC(=O)N(Cc3cccc(C(F)(F)F)c3)C2)no1 (centres undefined)	-13	-3	/	2.3	8	4	-1.2	-0.5	4	-2
Cc1ccc(N2CCN(C(=S)Nc3ccccc3)CC2)cc1	1.4	-12	-6%	3.4	8	8	-2.1	0.1	-6	1
CC(C)(C)c1cc2cccnc2n1Cc1ccccc1	/	2	3%	0.0	/	/	/	1.0	-24	3
COc1ccc(NC(=O)[C@@H](NC(=O)N2C[C@H]3C[C@@H](C2)c2cccc(=O)n2C3)C(C)C)cc1OC	-1.2	-3	/	-2.1	14	2	3.3	0.9	-9	2
Cc1ccc(Nc2cc(C)c3ccc(O)cc3n2)cc1C	6.1	0	0%	9.6	-50	-77	-22	-1.1	27	12
O=C(CN1CCN(Cc2ccc(Cl)cc2)CC1)N/N=C/c1cccs1	0.1	-2	5%	-0.1	-4	11	5.8	0.0	4	-4
O=C(Nc1ccc2c(c1)OCO2)C(c1ccc(Cl)cc1)N1CCN(C(=O)c2ccco2)CC1 (centres undefined)	/	/	-8%	1.1	/	/	/	0.6	3	5
COc1ccc(CCn2c(C)cc(C(=O)CSc3nnc(N)s3)c2C)cc1	/	/	7%	-0.3	/	/	/	-0.5	-8	-64
COc1ccc(C2C(C(=O)N3CCN(c4ccccn4)CC3)CCC(=O)N2c2cc(OC)c(OC)c(OC)c2)cc1 (centres undefined)	3.9	0	7%	2.2	6	0	-1.9	0.0	-3	-3
O=C(OCC(=O)N1CCCC1=O)c1cccc([N+](=O)[O-])c1	-1.1	-1	/	-1.1	19	14	-2.9	-0.6	-3	-3
C=CCNCCCOc1ccc(C(C)(C)c2ccccc2)cc1	6.9	-6	-3%	0.6	-51	-56	-12	-0.2	10	-1
COc1ccc(COc2cccnc2N)cc1	0.2	-1	/	-0.4	16	14	4.1	-4.5	-6	-6
CSc1ccc(C(=O)C2CCCN(C(=O)CCn3cncn3)C2)cc1 (centres undefined)	-0.8	-3	/	0.9	4	7	-0.1	0.2	7	-7
Cc1ccc(N(CC(=O)NCc2ccncc2)S(C)(=O)=O)cc1Cl	/	/	16%	2.7	/	/	/	0.2	-15	0

An excerpt from above in order of molar mass, ascending.
SMILES	MLL AF4-AF9 inh	Beta cell apopt	Vif TR-FRET	RanGTP-Imp inh	Ecoli rRNA inh	Ecoli rRNA inh OD600	Ecoli rRNA inh RFP	Bfl-1 A1 inh	T cruzi inh	Calb FLC
COc1ccc(COc2cccnc2N)cc1	0.2	-1	/	-0.4	16	14	4.1	-4.5	-6	-6
C=CCNCCCOc1ccc(C(C)(C)c2ccccc2)cc1	6.9	-6	-3%	0.6	-51	-56	-12	-0.2	10	-1
O=C(CN1CCN(Cc2ccc(Cl)cc2)CC1)N/N=C/c1cccs1	0.1	-2	5%	-0.1	-4	11	5.8	0.0	4	-4
COc1ccc(NC(=O)[C@@H](NC(=O)N2C[C@H]3C[C@@H](C2)c2cccc(=O)n2C3)C(C)C)cc1OC	-1.2	-3	/	-2.1	14	2	3.3	0.9	-9	2

(continued)
SMILES	MLL AF4-AF9 inh	Beta cell apopt	Vif TR-FRET	RanGTP-Imp inh	Ecoli rRNA inh	Ecoli rRNA inh OD600	Ecoli rRNA inh RFP	Bfl-1 A1 inh	T cruzi inh	Calb FLC
CCC(=O)N1c2ccc(S(=O)(=O)N3CCN(c4ccccc4Cl)CC3)cc2CC1C (centres undefined)	-5.2	-9	/	0.8	-4	5	-1.5	2.6	18	-40
Cc1ccc(/C=C2\SC(=S)N(CC3CCCO3)C2=O)o1 (centres undefined)	8.2	-22	/	2.1	7	-8	59	-0.1	-9	5
CC1CCN(c2nc(CN3CCCCC3)nc3scc(-c4ccccc4)c23)CC1	/	36	-5%	1.5	/	/	/	0.1	49	32
CNC(=O)c1csc(-c2ccc(Cl)cc2)n1	-4.1	0	-6%	5.3	-7	-23	7.4	-0.8	-4	7
OCCNC(=S)NCCc1ccccc1	/	5	/	-2.6	/	/	/	-0.4	-6	-7
CCNC(=O)COC(=O)c1ccc(-n2nc(C)cc2C)cc1	1.1	3	0%	-1.0	6	3	0.7	0.9	-8	2
O=C(CN1CCOCC1)NN1CC(=O)N(c2ccc(Cl)cc2)CC1=O	-0.5	/	3%	5.1	11	6	-2.8	0.5	-11	1
COc1ccc(CCNC(=O)CSCc2ccc([N+](=O)[O-])cc2)cc1	/	-3	-3%	-3.4	/	/	/	-0.5	-2	12
Cc1ccccc1NS(=O)(=O)c1cc(C(=O)Nc2ccccc2-c2ccccc2)ccc1Cl	/	1	-3%	-2.0	/	/	/	-0.4	31	-1
COc1ccc(Nc2nc3ccccc3c(=O)[nH]2)cc1	4.8	-3	2%	-0.7	4	6	-2.6	-0.4	-4	6
CCOC(=O)c1cnn(-c2c(Cc3ccccc3)c(C)nc3c(-c4ccccc4)c(C)nn23)c1N	/	/	6%	4.9	/	/	/	/	43	-4
CC(C)(C)NC(=O)COC(=O)C1c2ccccc2Oc2ccccc21	-6.2	-4	/	8.2	-11	-15	4.6	-1.4	-17	-5
CC(=O)Nc1ccc2nc(NC(=O)c3ccco3)sc2c1	-0.4	/	/	-0.8	6	12	2.7	-8.1	-7	-10
CCN(CC)S(=O)(=O)c1ccc2oc(SCC(=O)NCc3ccccc3)nc2c1	/	0	-3%	1.5	/	/	/	0.4	-4	3
CCOC(=O)C1CCN(S(=O)(=O)c2cccc(-c3cn4cccc(C)c4n3)c2)CC1	/	1	>100µM*	/	-28	-25	-15	2.0	/	/
CCOC(=O)c1cnc(-c2ccccc2)nc1Oc1ccc(Cl)c(Cl)c1	/	-4	0%	-1.1	/	/	/	1.0	-14	-3
O=C(O)c1ccc(Nc2ccc3nonc3c2[N+](=O)[O-])cc1	-0.9	1	/	-3.6	7	5	4.0	0.5	11	-9
CN1/C(=C\C(=O)c2cccc([N+](=O)[O-])c2)Sc2ccccc21	-5.1	58	/	-1.3	5	9	3.0	-2.9	-2	3
CCOC(=O)c1c(C)[nH]c(C(=O)OCC(=O)N(CC(C)C)C2CCS(=O)(=O)C2)c1C (centres undefined)	-1.5	-2	-12%	/	1	0	1.8	0.0	/	/
Cc1cc(F)c(F)c(C(=O)N2C(C)CCCC2C)c1Cl (centres undefined)	-0.8	-10	-5%	-0.3	-7	-13	-4.5	0.2	3	-19
COc1ccc([C@@H]2[C@@H]3C(=O)N(C(C)(C)C)C(=O)[C@@H]3[C@]3(C)C(=O)N(c4ccc(C)cc4)C(=O)N23)cc1	-7.3	-3	/	3.5	2	0	-1.2	0.6	4	8
C[C@@H]1C(=O)O[C@H]2C[C@@]34[C@H]5C[C@@H](C(C)(C)C)[C@]36[C@@H](OC(=O)[C@@H]6O)O[C@@]4(C(=O)O5)[C@]21O	-0.7	-7	-4%	-2.2	3	9	-0.4	1.1	0	-10
O=S(=O)(Nc1c(O)ccc2ccccc12)c1ccc(F)cc1	2.3	-2	/	4.9	-22	-10	6.7	-0.4	-6	12
Cc1ccc(NS(=O)(=O)c2ccc3c(c2)NC(=O)CCS3)cc1C	-3.4	1	7%	8.1	-26*	-17*	-0.1*	-0.7	6	5
CN(C)CCCNc1ncnc2c1cnn2Cc1ccccc1Cl	-5.9	/	-3%	-1.3	14	12	2.4	/	40	6
N#Cc1ccc(NC(=O)C2=COCCO2)cc1	-0.6	-3	-3%	/	/	/	/	-2.9	/	/
CCOC(=O)c1cc(-c2ccc(F)cc2)nc2c1c(=O)[nH]c(=O)n2Cc1ccccc1	-1.4	8	16%	1.0	7	14	-0.7	0.2	-1	-7
COc1ccc(OC(=O)CN2C(=O)C3C4CCC(C4)C3C2=O)cc1 (centres undefined)	/	-11	/	6.9	/	/	/	-0.2	0	10
Cc1cc(N/N=C/c2cccc(F)c2)nc(NCc2ccccc2)n1	5.8	33	5%	-1.0	-4	-13	4.4	0.0	23	15
CCN(CC)Cc1cc(CCNC(=O)c2ccc(Cl)cc2)ccc1O	/	-1	5%	-4.7	/	/	/	0.4	22	2
S=C(NCc1ccco1)N1CCN(Cc2ccc(Cl)cc2Cl)CC1	/	-3	10%	-4.9	/	/	/	0.6	14	-2
